TRPML1 blocker = blocks the human TRPML1 channel; Q9GZU1; TRPML1-inducible cells, Ca2+ dye fluorescence, FDSS; hits give low values; inhibition of EC80 agonist-evoked calcium signal; activity change, negative = inhibition, % (no concentration beside the values); 390,000 tested, 0.02% active; in the data active means activity change below about -50%; inconclusive means about -30% to -50%; inactive means above about -30%;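 note: stimulus is agonist 54-4 at its EC80 concentration; % is set by controls: 0 for no effect and ±100 for the full control effect; compound concentration not given in the record; the text of the record puts the active cut at -80%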
Target sequence (Q9GZU1 whole entry, looked up): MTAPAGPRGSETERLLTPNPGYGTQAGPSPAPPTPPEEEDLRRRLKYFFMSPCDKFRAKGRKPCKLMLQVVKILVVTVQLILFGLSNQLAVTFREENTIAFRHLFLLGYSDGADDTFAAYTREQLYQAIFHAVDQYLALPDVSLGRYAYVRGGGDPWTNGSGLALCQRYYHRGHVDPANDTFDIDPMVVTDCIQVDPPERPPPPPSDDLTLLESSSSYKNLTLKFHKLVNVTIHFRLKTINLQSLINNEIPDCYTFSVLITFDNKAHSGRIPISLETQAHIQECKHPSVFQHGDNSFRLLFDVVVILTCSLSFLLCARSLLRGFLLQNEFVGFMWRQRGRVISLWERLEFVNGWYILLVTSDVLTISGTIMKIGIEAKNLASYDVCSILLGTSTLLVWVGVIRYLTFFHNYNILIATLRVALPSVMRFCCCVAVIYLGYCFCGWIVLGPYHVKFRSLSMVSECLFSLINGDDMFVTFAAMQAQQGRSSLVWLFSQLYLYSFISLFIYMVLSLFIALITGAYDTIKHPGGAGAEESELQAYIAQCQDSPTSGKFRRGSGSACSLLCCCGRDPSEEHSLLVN
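TRPML1-DL cells, Tet-induced overnight (~16 h, 37 °C) at 1,500 cells/well, were loaded with Ca8 no-wash dye plus quencher for 45-90 min at room temperature. Compounds were pinned during FDSS kinetic reading; agonist 54-4 at EC80 (4 uM final) then added.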
PINK1 expr mod = modulators of PINK1 expression | PINK1 immunofluorescence, high-content cytometry, 24 h | Potency, µM (top dose mostly 76.6 µM), inactives show at the highest dose activation (PINK1 increase), hits mostly activators | 410,000 tested, 0.2% active | AID 624263; active = well fitted activation curve with a large enough effect; inconclusive = small, poorly fitted or top-dose-only effect; inactive = flat fitted curve, though single readings scatter; cell line not stated here;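 note: potency is the fitted concentration of half-maximal effect; % of control where 0% means no effect; nearly all actives have a fitted effect of over 65% in size; a mitochondrial uncoupler was the plate control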
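Readout is PINK1 immunofluorescence, quantified alongside mitochondrial, cell and nuclear markers by laser-scanning microplate cytometry. Cells from a stable line were exposed to compound titrations (5 concentrations) for 24 hours, with CCCP controls.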
TRPML1 ag = agonists of human TRPML1 channel | TRPML1-expressing cells, Ca2+ dye fluorescence, FDSS; host cell line not named in the record; reference of the full effect not given here | activation, % (test concentration not listed) | 410,000 tested, 0.12% active; in the data active = activation above about 50%; inconclusive = about 30% to 50%; inactive = below about 30%; note: 0% is about no effect; the text of the record puts the active cut at 80%
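In this qHTS format, compounds were pin-transferred onto Ca8-dye-loaded TRPML1-DL cells induced with Tet overnight, and intracellular Ca2+ fluorescence was recorded kinetically for 110 s after a 10 s baseline. A subsequent 4uM final 54-4 (EC80) addition followed by a second 110 s read served as the antagonist phase.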
Menin-MLL FL inh = inhibitors of human menin-MLL interaction, wild-type MLL peptide. AID 1766. 290,000 tested, under 10 active. FP activity change, % at 61.4 µM. Fluorescence polarization, fluorescein-MLL peptide displacement from menin; inconclusive = falling polarisation curve, or a change in total fluorescence; inactive = total fluorescence flat and polarisation flat or rising; no compound was filed as active; the % refers to the polarisation; negative = inhibition;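 note: % of control where 0% means no effect; inhibitors lower the polarisation; unlabelled MLL peptide was the positive control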
TRPV1 potentiator = human TRPV1 potentiation | TRPV1-expressing cells, Fluo-8 calcium influx, capsaicin EC20 potentiation; host cell line not named in the record; control for the full effect not named in the record | potentiation, % at 8.33 µM | 320,000 tested, 0.02% active | AID 540277; active means potentiation above 80%; inconclusive means 30% to 80%; inactive means below 30%; note: 0% is about no effect
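Cells expressing TRPV1 were dye-loaded with Fluo-8 and read kinetically: 10 s baseline, 3 min after compound (agonist portion), then 2 min after EC20 capsaicin (allosteric enhancer portion). Calcium-bound dye fluorescence at 480/520 nm.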
ClpP mod = qHTS Assay for Activators of ClpP | ATP-dependent Clp protease proteolytic subunit (Bacillus subtilis (strain 168)), P80244 | Potency, µM (top dose mostly 57.5 µM), inactives show top-dose activity change, negative = active | 340,000 tested, 1.9% active | purified B. subtilis ClpP, FRET peptide cleavage, 20 min; active = well fitted falling curve with a large enough effect; inconclusive = small, poorly fitted or top-dose-only effect; inactive = no such curve, though single readings can be large or run the other way; note: potency is the fitted concentration of half-maximal effect; the source files actives as falling curves though it sought activators and does not explain the sign; nearly all actives have a fitted effect of over 65% in size; many hits overshoot -100%
Target sequence (P80244 whole entry, looked up): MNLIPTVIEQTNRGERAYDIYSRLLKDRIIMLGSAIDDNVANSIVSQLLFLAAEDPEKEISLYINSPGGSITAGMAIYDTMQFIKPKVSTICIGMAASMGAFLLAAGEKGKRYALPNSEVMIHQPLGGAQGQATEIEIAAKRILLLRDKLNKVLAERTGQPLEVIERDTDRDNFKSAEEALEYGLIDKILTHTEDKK
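ClpP 10 microg/mL final, pH 8 Tris/KCl buffer with BSA, glycerol, Tween-20; compound pinned in; FRET-FV substrate; RT 20 min; Ex320/Em430; ΔFRET vs ADEP 5.8 microM, DMSO, no enzyme.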
Sfp inh = blocks B. subtilis Sfp PPTase activity; Q9F4F7; Biochemical Sfp PPTase activity, qHTS; Potency, µM, inactives show max response, negative = inhibition, hits mostly inhibitors; 310,000 tested, 3.5% active; active = well fitted inhibition curve with a large enough effect; inconclusive = small, poorly fitted or top-dose-only effect, or another doubt; inactive = no such curve, though single readings can be large or run the other way;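 note: the enzyme is Sfp with the accession as filed and its product quenches rhodamine fluorescence; potency is the fitted concentration of half-maximal effect; 0% = enzyme reaction without inhibitor and -100% = no enzyme wells; top concentration of the series not given in the record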
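Buffer: 50 mM Hepes-Na pH 7.6, 10 mM MgCl2, 0.01% Nonidet P-40, 0.01% BSA. Enzyme 15 nM, pre-exposed to compound 15 min; substrates then added and fluorescence change tracked over 30 min.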
Starred values were filed as active, the others as inactive; ? = inconclusive; nt = no result given; & = joins results of further samples; [ ] = another dose, or the depositor's remark.

SMILES	TRPML1 blocker	PINK1 expr mod	TRPML1 ag	Menin-MLL FL inh	TRPV1 potentiator	ClpP mod	Sfp inh
COc1ccccc1NS(=O)(=O)c1ccc(Cl)c(NC(=O)c2sc3cc(Cl)ccc3c2Cl)c1	-7	3.9%	0.5	-6.9	-7	-0.7%	20%
CCN(CC)c1ccc(NS(=O)(=O)c2ccc(OC)cc2)cc1	27	-0.2%	-0.4	3.6	-12	nt	-16%
CCCn1c(SCC(=O)Nc2c(C)cccc2CC)nnc1C(C)C	9	-0.2%	-0.3	0.6	0	0.9%	-2%
Cc1cc(OCCN2CCOCC2)ccc1Cl	2	-1.4%	-0.2	-3.1	-9	-0.6%	-2%
CCCNC(=O)NC(=O)CSc1nc(C)cs1	4	-1.0%	0.5	0.2	10	nt	11%
O=C(Nc1cccc(C(F)(F)F)c1)c1ccccc1NC(=O)C1CCCCC1	-17	8.2%	3.0	7.6	-1	-8.4%	12%
O=C1CSC(c2cccnc2)N1c1ccc(Cl)cc1 (stereo not given)	-8	-0.6%	-1.0	-2.8	0	-5.6%	18%
COc1ccc(CN2CCNC(=O)C2CC(=O)NC2CCCCCCC2)cc1OC (stereo not given)	-17	7.3%	0.2	nt	-5	-5.6%	1%
COC(=O)C1(C)COP(=O)(Nc2ccc(OC)cc2)OC1 (stereo not given)	nt	0.5%	-0.5	nt	nt	2.1%	nt
CN(CC(=O)Nc1ccc(OC(F)(F)F)cc1)S(=O)(=O)c1cnc[nH]1	11	2.0%	-0.3	nt	-7	nt	1%
CC(=O)CN1Cc2ccccc2/C1=N\C(=O)Nc1ccccc1	-11	nt	0.7	-3.3	17	-17%	11%
Cc1ccc2cccc(N=Cc3c(C)[nH]n(-c4ccccc4)c3=O)c2n1	-6	2.3%	1.1	5.5	-6	-1.1%	-2%
O=C(Nc1ccc(S(=O)(=O)N2CCCCC2)cc1)c1ccccc1F	-5	1.6%	-0.4	1.8	-2	nt	18%
C#CCOCCOCCOCCNc1nc(N2CCN(C(=O)[C@H](CCCCN)n3cc(CN)nn3)CC2)nc(N2CCN(C(=O)[C@H](CCC(=O)O)n3cc([C@@H](N)CCSC)nn3)CC2)n1	-2	0.7%	0.1	nt	nt	-0.4%	nt
Cc1ccsc1CN1CC(=O)N(c2c(C)cccc2C)C1=S	2	2.7%	-0.8	1.2	-13	4.3%	12%
O=C(NC(=S)N(Cc1ccccc1)Cc1ccccc1)C1CCCCC1	-1	9.0%	2.3	-4.0	0	1.1%	-7%
O=C(Nc1ccc2c(c1)CCCN2C(=O)c1cccs1)c1ccccc1	-6&6	0.6%&2.5%	2.4&2.9	-5.8	-16	-2.5%&0.6%	-17%
Cc1onc(-c2ccccc2Cl)c1C(=O)Nc1ccc(S(=O)(=O)N2CCCC2)cc1	7	8.8%	-0.3	2.0	nt	-22%	10%
O=C(Nc1nc2cc3c(cc2s1)OCCO3)c1cccc(N2C(=O)CCC2=O)c1	-2	1.1%	-0.8	-3.5	-6	-1.5%	-5%
COC1=C/C(=C/c2c(N)n3nc(-c4ccc(C)cc4)sc3nc2=O)C=CC1=O	7	-0.3%	0.2	?	4	nt	-6%
Cc1ccc(C(=O)OCc2nc3ccsc3c(=O)[nH]2)o1	-4	-1.4%	0.9	nt	19	-4.4%	nt
COc1ccc(Nc2nnc(-c3ccc(C(=O)NCCO)cc3)c3ccccc23)cc1	27	2.0%	0.7	-1.0	16	nt	13%
Cc1ccc2nc(-c3cc(NC(=O)/C=C/c4ccccc4)ccc3Cl)oc2c1	7	-0.1%	0.0	nt	nt	?	nt
CCc1nnc(NC(=O)CSc2nc3c(c(=O)n2CC)SC(C)C3)s1 (stereo not given)	15	-0.9%	0.8	0.0	10	0.7%	9%
O=C(N/N=C/c1ccco1)c1cc(-c2ccccc2)nc2ccccc12	10	6.3%	0.5	nt	-34	-5.9%	5%
COc1ccc2[nH]c(C)c(CN3CCC(C)CC3)c(=O)c2c1	-4	nt	0.0	-3.3	-4	10µM*	9%
O=C(NCc1ccccn1)C1CCN(C(=O)c2cc3sccc3n2Cc2ccc(F)cc2)CC1	8	2.1%	-0.6	-2.6	7	-3.4%	6%
COc1ccc(C(=O)Nc2cc(C(F)(F)F)ccc2-n2cncn2)cc1	2	1.4%	0.2	3.5	-9	-1.3%	6%
O=C1CCCN1CC(O)CS(=O)(=O)c1ccc(Cl)cc1 (stereo not given)	0	35%[38.3 µM]	-0.4	-0.2	4	0.7%	25%
CCOc1ccccc1OCCn1ncc2ccc(OC)c(OC)c2c1=O	9	0.4%	1.5	-0.9	5	-13%	5%
Cc1cccc(NS(=O)(=O)c2ccc3nc(-c4ccccc4)[nH]c3c2)c1C	6&-5	6.1%&2.0%	1.9&2.2	7.9	-6	-9.7%&1.3%	11%
O=C(CSc1nnc(-c2ccccc2Br)o1)N1CCN(C(=O)c2ccco2)CC1	-3	-1.3%[38.3 µM]	-0.3	2.8	-6	0.9%	-19%
Cc1nnsc1-c1c(C(=O)N2CCOCC2)c(C)nn1-c1ccc(Cl)cc1	-17	-0.4%	1.0	2.6	-10	nt	17%
Cc1cc(=O)oc2cc(OCC(=O)Nc3ccc(N4CCC(C)CC4)cc3)ccc12	2	2.9%	1.2	2.6	-3	-1.9%	16%
CC1Sc2ccc(S(=O)(=O)N3CCC(C(=O)N(C)Cc4ccco4)CC3)cc2NC1=O (stereo not given)	-10	4.6%	-0.5	nt	4	0.8%	8%
CCOP(=O)(OCC)c1nc(-c2ccc(C)cc2)oc1N1CCOCC1	8	-3.2%	-0.8	nt	nt	?	nt
CCc1ccccc1Nc1ncnc2c1nc1n2CCCC1	20	-2.1%	0.6	nt	nt	-2.5%	nt
CCCCn1c(N)c(N(Cc2ccccc2OC)C(=O)C(C)C)c(=O)[nH]c1=O	5	0.4%	0.3	nt	-11	-0.6%	5%
Cn1nc([N+](=O)[O-])nc1Sc1cccc2cccnc12	-4	8.4%	0.0	-0.4	-8	-0.7%	?
O=C(NCCc1ccccn1)c1ccc2nc(Cc3ccccc3F)oc2c1	-12	-2.4%	0.3	nt	?	-5.6%	3%

Entries above containing a CF3 group (3):
SMILES	TRPML1 blocker	PINK1 expr mod	TRPML1 ag	Menin-MLL FL inh	TRPV1 potentiator	ClpP mod	Sfp inh
O=C(Nc1cccc(C(F)(F)F)c1)c1ccccc1NC(=O)C1CCCCC1	-17	8.2%	3.0	7.6	-1	-8.4%	12%
CN(CC(=O)Nc1ccc(OC(F)(F)F)cc1)S(=O)(=O)c1cnc[nH]1	11	2.0%	-0.3	nt	-7	nt	1%
COc1ccc(C(=O)Nc2cc(C(F)(F)F)ccc2-n2cncn2)cc1	2	1.4%	0.2	3.5	-9	-1.3%	6%

(cont.)
SMILES	TRPML1 blocker	PINK1 expr mod	TRPML1 ag	Menin-MLL FL inh	TRPV1 potentiator	ClpP mod	Sfp inh
Cc1ccn2cc(C(=O)Nc3cccc(C(=O)NC4CC4)c3)nc2c1	-21	0.0%	0.2	nt	14	nt	nt
NC1=NC[C@H](c2ccccc2)N1CC1CCCCC1	-19	2.5%	-0.1	nt	nt	-1.9%	nt
O=C(NCc1ccccc1CN1CCCC1)c1cccc(S(=O)(=O)N2CCOCC2)c1	-6	1.6%	-0.8	nt	3	-2.2%	nt
Oc1cnn(-c2ccccc2)c1	-3	2.8%	-0.6	-3.8	8	-0.7%	9%
CCn1c(C)c(C(C)=O)cc(C#N)c1=O	-5	0.0%	2.4	-0.6	0	0.6%	-21%
COc1ccc(-c2nnc(SCC(=O)Nc3ccc(C(C)=O)cc3)nc2-c2ccc(OC)cc2)cc1	36	1.2%	0.7	nt	nt	-17%	nt
Cc1cccc(C(=O)OCC(=O)Nc2ccccc2C(=O)NC2CC2)c1	39	6.7%	1.8	nt	-15	-13%	nt
CCOc1ccc2nc(COC(=O)c3ccco3)c(C(C)=O)[n+]([O-])c2c1	27	-0.5%	2.2	1.9	7	-1.0%	-15%
O=C(CS(=O)(=O)c1ccc(Cl)cc1)Nc1nc2ccc(Br)cc2s1	2	2.4%	0.3	nt	nt	-7.1%	nt
O=C(Nc1ccc(Cl)cc1)c1cc(S(=O)(=O)Nc2ccccn2)ccc1Cl	-4	0.7%	-0.6	-1.5	13	nt	18%
CCCOc1ccc(-c2c(C(=O)N/N=C/c3ccsc3)nnn2-c2nonc2N)cc1	19	1.9%	3.0	nt	-2	-4.2%	6%
COC(=O)C1=C(C)NC(=S)NC1c1ccc(OCC(=O)N2CC(C)OC(C)C2)c(OC)c1 (stereo not given)	6	2.6%	-0.1	nt	10	-1.5%	nt
Cc1ccc(C)c(OCCSc2nnc(C)c(=O)[nH]2)c1	0	-0.1%	-0.6	0.1	-17	nt	18%
Cc1nnc(NC(=O)c2ccc(C)c(S(=O)(=O)N3CCOCC3)c2)s1	8	1.3%[38.3 µM]	0.3	-6.4	28	1.3%	11%
O=C(CSc1ccccn1)Nc1ccc2c(c1)CCC2	0	-1.4%	1.2	nt	-14	nt	nt
O=C(CCn1c(=O)c2ccccc2n(Cc2ccc(Cl)cc2)c1=O)NCc1ccc2c(c1)OCO2	-9	-1.0%	1.8	nt	nt	-22%	nt
COc1cccc(C2c3c(-c4cc(Cl)c(C)cc4O)n[nH]c3C(=O)N2Cc2cccnc2)c1 (stereo not given)	-11	-0.6%	0.6	-2.2	-2	2.8%	-25%
CSc1ccc(/C=N/n2c(C3CCCCC3)n[nH]c2=S)cc1	-21	9.0%	3.3	0.0	22	nt	-7%
O=C1CC(N(O)C2CC(=O)N(Cc3ccccc3)C2=O)C(=O)N1Cc1ccccc1 (stereo not given)	1	7.0%	0.3	4.5	-5	54%	45µM*
S=C1NC2=C(CCCC2=C2SCCS2)C(c2ccccc2)N1 (stereo not given)	-1	5.0%	0.2	0.4	9	nt	-7%
COc1ccccc1P(=O)(Cc1ccccc1[N+](=O)[O-])c1ccccc1 (stereo not given)	-15	10%	0.0	9.1	9	nt	20%
C[C@@H]1CN([C@@H](C)CO)C(=O)CCCn2nncc2CO[C@@H]1CN(C)S(C)(=O)=O	-5	-0.7%	0.0	nt	nt	-1.1%	nt
COCCCNC(=O)c1cc(-c2cccnc2)nc2ccccc12	-3&12	0.5%&0.7%	0.4&-0.6	0.5	6	?	13%
